# YopH PTP inh: blocks Yersinia enterocolitica YopH tyrosine phosphatase; fluorescence Ex485/Em525; inhibition, %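 (about 10 µM by stock and volumes)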; hit rate 0.16% among 140,000;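 active = inhibition of 50% or more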;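 note: controls were vehicle for no effect and minimum signal wells for full effect; inactives centre near -20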
# Arbovirus inh: arbovirus infection inhibition; arbovirus infection cell-based antiviral screen; inhibition, % at 10 µM; hit rate 0.37% among 200,000;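 active = inhibition from about 30%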;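 note: bluetongue infection of BSR cells; cell survival read as ATP light after 72 h; 0% = infected wells without compound and 100% = uninfected wells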
# Mtb growth: M. tuberculosis H37Rv growth inhibitors, H37Rv strain (AID 1626); one-dose inhibition, % at 10 µM; IC50 in µM for titrated hits; hit rate 0.95% among 220,000; M. tuberculosis H37Rv growth inhibition; higher % means a stronger effect;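 active = confirmed in a dose series; inconclusive = inhibition above 80% but not taken into the dose series; inactive = below 80% or under 30% at every dose of the series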;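 note: bacteria incubated seven days before Alamar blue readout; 0% = bacteria only wells and 100% = bacteria with antibiotic wells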
# RecA intein inh: inhibitors of M. tuberculosis RecA intein splicing. cell-free RecA intein splicing, fluorescence. inhibition, %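 (about 9 µM by stock and volumes)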. hit rate 0.75% among 290,000. AID 2221; in the data active = inhibition above about 30%; inconclusive = no clear call, values can overlap the other calls;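 note: 0% = vehicle wells and 100% = reference inhibitor control wells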
# Target sequence (P9WHJ3 whole entry, looked up): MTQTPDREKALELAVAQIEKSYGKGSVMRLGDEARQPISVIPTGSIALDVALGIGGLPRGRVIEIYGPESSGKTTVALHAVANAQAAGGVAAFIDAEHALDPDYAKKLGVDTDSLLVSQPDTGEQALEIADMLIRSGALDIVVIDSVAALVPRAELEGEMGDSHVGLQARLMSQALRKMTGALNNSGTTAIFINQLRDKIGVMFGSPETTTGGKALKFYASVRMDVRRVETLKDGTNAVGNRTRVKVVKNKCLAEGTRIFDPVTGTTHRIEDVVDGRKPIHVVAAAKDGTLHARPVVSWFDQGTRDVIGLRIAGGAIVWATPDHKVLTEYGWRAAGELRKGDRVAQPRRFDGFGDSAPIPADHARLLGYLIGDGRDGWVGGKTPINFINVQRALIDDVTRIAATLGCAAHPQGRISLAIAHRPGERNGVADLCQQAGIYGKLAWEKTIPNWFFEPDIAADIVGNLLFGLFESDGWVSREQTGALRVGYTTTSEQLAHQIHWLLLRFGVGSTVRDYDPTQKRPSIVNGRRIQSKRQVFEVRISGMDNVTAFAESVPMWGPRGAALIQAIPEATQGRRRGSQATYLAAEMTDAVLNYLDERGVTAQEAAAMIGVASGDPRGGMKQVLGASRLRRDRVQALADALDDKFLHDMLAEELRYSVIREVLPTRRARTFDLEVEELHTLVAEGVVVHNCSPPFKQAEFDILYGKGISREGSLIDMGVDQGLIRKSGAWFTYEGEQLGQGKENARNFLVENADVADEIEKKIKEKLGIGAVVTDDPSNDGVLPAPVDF
# Mtb bLac sens: beta-lactam sensitization of Mtb H37Rv; M. tuberculosis H37Rv growth with meropenem, percent inhibition; hits of this screen are not shown here; inhibition, % at 25 µM; hit rate 0.27% among 330,000;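 active = about 74% or more and at least 40 points above the plate without the antibiotic, then above 30% in a dose series; inconclusive = first-round hits that could not be retested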;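 note: growth measured after seven days incubation then overnight dye step; 0% = bacteria only wells and 100% = bacteria with antibiotic; twin plates without the antibiotic show which effects depend on it; some results filed as inactive read as strong as hits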
# Arbovirus inh repeat: also measured in Arbovirus inh; calls as there; inhibition, %; measured here: 10K subset replicate screen; many hits read low in the repeat;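 first of two repeat runs on a subset; 0% = infected and 100% = uninfected wells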
# Active calls of the source: *; i = inactive; u = inconclusive; x = not tested or not shown. This is a subset; count on the stated rates, not on these rows.
SMILES,YopH PTP inh,Arbovirus inh,Mtb growth,RecA intein inh,Mtb bLac sens,others
Cc1cnc(C(=O)OCc2ccc(Br)cc2F)cn1,x,x,x,-3.4,-5,
COc1ccc(-c2cc(C(=O)N3CCCCC3)no2)cc1OC,-38,11,3%,-0.5,74,
CC1CCN(CCCCOc2ccc(Cl)cc2)CC1,x,x,x,-1.0,1,
Cn1c(-c2ccccc2)n[nH]c1=S,x,x,0%,0.4,3,
Cc1cccc(C)c1NC(=O)COC(=O)c1cccnc1,x,-1,-6%,-3.8,3,
CCN(CC)Cc1c(O)ccc2cc(-c3nc4ccccc4n3C)c(=O)oc12,x,x,x,i,13,
CC(C)(C)c1ccc(C(=O)Nc2nnc(C3=COCCO3)o2)cc1,x,x,x,2.8,94,
Cc1cccc(C(=O)Nc2nnc(-c3ccco3)o2)c1,-34,-7,0.69µM*,1.3,92,
O=C(c1ccco1)N1CCN(C(=O)C2CC(c3ccc(F)cc3)=NO2)CC1 (centres undefined),-10,0,-1%,0.8,9,Arbovirus inh repeat=5
O=C(Cn1c(NCCO)nc2ccccc21)N1CCN(Cc2ccccc2)CC1,x,1,3%,1.1,-3,
Cc1ccc(S(=O)(=O)N2CCN(C(=O)COC(=O)c3cnc(C)cn3)CC2)c(C)c1,x,x,x,-1.1,-2,
COc1ccc(OC)c(S(=O)(=O)N2CCCC(C(=O)NCc3ccncc3)C2)c1 (centres undefined),x,x,x,-2.6,-3,
Nc1n[nH]c(-c2ccc(F)cc2)n1,-40,0,-4%,3.1,0,
CCC(CCC(=O)Nc1ccc(S(N)(=O)=O)cc1)C(=O)O (centres undefined),-68,-3,-7%,-1.9,-9,
Cc1ccc2c(c1)COc1c3ccc(C(=O)NCCO)cc3nn1-2,x,x,-11%,0.3,13,
O=C(NCc1ccc2c(c1)OCO2)C1CCCCC1,x,x,x,-1.0,-2,
Cc1nn(S(=O)(=O)c2cccc([N+](=O)[O-])c2)c(C)c1Br,x,3,11%,-2.7,2,
O=C(Nc1ccncc1)c1ccc2ccccc2c1,x,6,1%,-0.2,50,
CCOc1ccc(S(=O)(=O)/N=C(\N)c2ccccc2)cc1,x,x,-2%,2.4,-2,
Cc1nnsc1C(=O)Nc1cc(Cl)ccc1Cl,-10,8,-8%,-0.9,1,
CCOC(=O)CN(C(=O)CNC(=O)c1cccs1)C(C(=O)NC1CCCC1)c1ccncc1 (centres undefined),x,5,-9%,-2.2,-3,
COc1ccc(OC)c(NC(=O)CSc2nnc(NC(=O)c3ccco3)s2)c1,x,x,x,1.8,-16,
Cc1ccc2nc(Br)c3c(c2c1)OC(CBr)C3 (centres undefined),x,x,x,1.5,10,
CCN(CC)CCn1c(/N=C/c2cc(Br)ccc2O)nc2ccccc21,-21,2,2%,-2.1,4,
CCOc1ccccc1OCC(=O)Nc1ccc(N2CCCCC2)cc1,-3,-24,5%,-3.8,-4,

# Three compounds picked at random from those above, as already listed:
SMILES,YopH PTP inh,Arbovirus inh,Mtb growth,RecA intein inh,Mtb bLac sens,others
Cc1ccc2c(c1)COc1c3ccc(C(=O)NCCO)cc3nn1-2,x,x,-11%,0.3,13,
Cc1cnc(C(=O)OCc2ccc(Br)cc2F)cn1,x,x,x,-3.4,-5,
CCC(CCC(=O)Nc1ccc(S(N)(=O)=O)cc1)C(=O)O (centres undefined),-68,-3,-7%,-1.9,-9,

# Entries above with a halogen (8):
SMILES,YopH PTP inh,Arbovirus inh,Mtb growth,RecA intein inh,Mtb bLac sens,others
Cc1cnc(C(=O)OCc2ccc(Br)cc2F)cn1,x,x,x,-3.4,-5,
CC1CCN(CCCCOc2ccc(Cl)cc2)CC1,x,x,x,-1.0,1,
O=C(c1ccco1)N1CCN(C(=O)C2CC(c3ccc(F)cc3)=NO2)CC1 (centres undefined),-10,0,-1%,0.8,9,Arbovirus inh repeat=5
Nc1n[nH]c(-c2ccc(F)cc2)n1,-40,0,-4%,3.1,0,
Cc1nn(S(=O)(=O)c2cccc([N+](=O)[O-])c2)c(C)c1Br,x,3,11%,-2.7,2,
Cc1nnsc1C(=O)Nc1cc(Cl)ccc1Cl,-10,8,-8%,-0.9,1,
Cc1ccc2nc(Br)c3c(c2c1)OC(CBr)C3 (centres undefined),x,x,x,1.5,10,
CCN(CC)CCn1c(/N=C/c2cc(Br)ccc2O)nc2ccccc21,-21,2,2%,-2.1,4,

# Additional structures.
SMILES,YopH PTP inh,Arbovirus inh,Mtb growth,RecA intein inh,Mtb bLac sens,others
COc1cc(/C=C(\C#N)c2nnc(N3CCOCC3)n2-c2ccccc2)ccc1O,-34,-1,-8%,-2.3,2,
FC(F)(F)C1CCCN(c2nsc3ccccc23)C1 (centres undefined),x,x,x,-4.4,8,
CCOC(=O)c1c(C)[nH]c(C(=O)COC(=O)/C=C/c2ccc(O)c(OC)c2)c1C,-31,2,-4%,-0.8,-7,
Cc1nc2ccccn2c1C(=O)C(=O)Nc1cc(F)ccc1F,x,6,-8%,-5.6,-13,
Cc1ccc(-n2ncc3c(=O)n(Cc4ccccn4)cnc32)cc1C,-25,0,-5%,-1.1,1,
CCC1C(=O)N(c2nc(C)cc(C)n2)N=C1C (centres undefined),-17,1,-8%,67*,-4,
O=C(Nc1ccc(F)c(F)c1)NC1CCCCC1,9,4,-11%,-0.3,u,
Cc1ccnc(SCC(=O)Nc2sc3c(c2C#N)CCC(C(C)(C)C)C3)n1 (centres undefined),1,3,5%,9.3,24,
CC(=O)c1cccc(NC(=S)NNC(=O)c2ccc(C)c([N+](=O)[O-])c2)c1,x,3,1%,0.5,4,
CC(C)N(CCn1c(SCC(=O)N2CC(=O)Nc3ccccc32)nc2ccccc2c1=O)C(C)C,x,-11,6%,-1.2,1,
O=C(NCc1ccco1)c1ccc2c(c1)CCO2,x,x,8%,1.8,0,
COc1ccc(C2CC(c3ccc(Br)cc3)=NN2C(=O)CSC2=NCCS2)cc1 (centres undefined),-6,-13,8%,-1.7,27,
CCOC(=O)c1cnc2c(OC)cccc2c1N1CCN(c2ccccn2)CC1,x,7,4%,3.3,-4,
OC(CNC1Cc2ccccc2C1)c1ccccc1 (centres undefined),x,x,x,-3.3,9,
Cc1cc(/C=N/n2cnnc2)c(O)c([N+](=O)[O-])c1,-27,-4,-3%,2.1,17,
Cn1nnc(NC(=S)NC(=O)c2cc3ccccc3o2)n1,x,x,0%,2.6,0,
C/C(=N\N=C1\NC(=O)C(CC(=O)Nc2ccccc2F)S1)C1CCCCC1 (centres undefined),x,x,x,-1.7,2,
O=C(Cc1ccccc1)NCCc1c[nH]c2ccccc12,x,x,x,-0.1,-1,
Cn1nnnc1SCC(=O)NCC(=O)c1ccccc1,-54,5,-11%,x,-6,
C=CCOc1cccc(C2c3c(oc4ccccc4c3=O)C(=O)N2c2ccccn2)c1 (centres undefined),-39,12,11%,-1.3,5,Arbovirus inh repeat=-5
O=C(CN(Cc1ccccc1Cl)C(=O)CNS(=O)(=O)c1ccc(F)cc1)NCC1CCCO1 (centres undefined),x,x,x,-1.5,-1,
COc1ccc(Cl)cc1-n1c(C)cc(C=O)c1C,1,7,8%,-4.9,19,
CCC(=O)N1CCN(c2ccccc2NC(=S)NC(=O)c2ccco2)CC1,x,x,x,2.4,5,
CCOC(=O)c1cn(CC)c2cc(F)c(F)cc2c1=O,x,x,-11%,-0.2,-14,
O=C(/C=C/c1ccccc1Cl)N1CCCN(C(=O)/C=C/c2ccccc2Cl)CC1,-11,8,10%,-1.6,10,

# Next results follow.
SMILES,YopH PTP inh,Arbovirus inh,Mtb growth,RecA intein inh,Mtb bLac sens,others
CN(CC(=O)OCC(N)=O)S(=O)(=O)c1ccc(Cl)cc1,x,7,5%,-0.3,-3,
COC(=O)c1nn(-c2ccc(F)cc2)ccc1=O,x,x,7%,-1.1,1,
CCCC(O)(c1ccc(OC)cc1)C(CN(C)C)c1ccccc1 (centres undefined),-21,4,3%,0.8,-5,
C=CCN1C(=O)C(CC(=O)NCC)SC1=Nc1ccccc1OC (centres undefined),x,x,x,-1.1,2,
O=C(Nc1ccccc1F)C(=Cc1sc(N2CCOCC2)nc1-c1ccccc1)C(=O)Nc1ccccc1F,-48,-15,51µM*,-87,-4,
CCN1C(=O)N(CC)C2C1N(CO)C(=O)N2CO (centres undefined),x,5,-1%,-0.2,-10,
Cc1ccc(SC(CC(=O)c2ccc(C(C)(C)C)cc2)C(=O)O)cc1 (centres undefined),x,-32,2%,8.1,1,
COC(=O)c1cc2nc(-c3ccc(OC)c(OC)c3)cc(C(F)(F)F)n2n1,-47,3,-14%,x,0,
COc1ccccc1N1CCN(S(=O)(=O)c2ccc(NC(C)=O)cc2)CC1,x,x,x,-2.1,7,
O=C(Nc1ccc(C(=O)O)cc1)/C(=C\c1ccc2c(c1)OCO2)NC(=O)c1ccco1,x,0,-2%,1.3,-4,
COc1ccc(N2CCN(C(=O)c3ccc4c(=O)n(CC5CCCO5)c(=O)[nH]c4c3)CC2)cc1 (centres undefined),-12,8,-3%,-1.5,u,
CS(=O)(=O)Nc1ccc(C2=NN(C(=O)CCCC(=O)O)C(c3cccs3)C2)cc1 (centres undefined),x,x,x,-1.8,6,
N#Cc1nc(COc2ccccc2F)oc1NCc1ccc(F)cc1,-20,-2,9%,-0.1,-7,Arbovirus inh repeat=0
O=C(COc1ccccc1)N1CCN(S(=O)(=O)c2ccc(Cl)cc2)CC1,4,20,-10%,-1.9,-3,
COc1ccc2[nH]c(=O)c(CN(CCO)S(=O)(=O)c3c(C)ccc4nsnc34)cc2c1,-20,3,-7%,-1.9,-19,
CCOC(=O)Cn1nc(C)n(-c2c(C)cccc2C)c1=O,x,3,6%,-0.9,-1,
Cc1ccc(C(=O)NCC(=O)NCc2cc(=O)n(C)c(=O)n2C)cc1C,x,x,x,-0.5,0,
CN(CCC(=O)Nc1ccc(Cl)cc1)Cc1ccccc1,x,x,x,0.5,1,
O=S(=O)(NCc1ccccc1)c1ccc(-n2cccn2)cc1,x,x,x,4.2,-23,
CCOC(=O)C1CCN(c2c(-c3ccccc3)c3cc(Cl)ccc3[nH]c2=O)CC1,-22,6,6%,0.8,-2,
CCc1nc(NCCN2CCOCC2)c(C#N)c2c1CCCC2,-3,2,1%,x,-7,
Fc1ccc(Nc2nc(N/N=C/c3ccco3)nc(N3CCCCC3)n2)cc1,x,-1,u,2.0,96,
Brc1ccc2c(c1)OCCOCCOCCOCCOCCO2,-20,-2,0%,3.9,15,
COCCNc1c2c(nc3c(-c4ccccc4)c(C)nn13)CCCC2,12,2,5%,6.7,52,
CC(=O)N(Cc1c(C)nn(-c2ccccc2)c1Cl)c1ccc(Cl)cc1,-46,-5,-14%,5.8,12,

# New compounds follow:
SMILES,YopH PTP inh,Arbovirus inh,Mtb growth,RecA intein inh,Mtb bLac sens,others
COc1ccc(C2=NOC(C)(c3nnc(-c4ccncc4)o3)C2)cc1 (centres undefined),x,x,3%,-1.2,92,
CCOc1ccc(S(=O)(=O)n2cnc(C)c2)cc1,x,x,x,-0.9,2,
COC(=O)/C=C1\S/C(=N/N=C/c2ccco2)NC1=O,x,3,-10%,-0.1,91,
CC(C)N=C(Nc1ccc(Cl)cc1)c1cccnc1,-15,-5,0%,-0.2,-1,
CC1=C(C(=O)OC2CCCCCCC2)C(c2cccc(O)c2)NC(=O)N1 (centres undefined),12,27,9%,-2.1,2,Arbovirus inh repeat=22
O=C(Cn1[nH]c(=O)c2ccccc2c1=O)NCc1cccnc1,-28,0,-1%,x,-5,
CC1=CN2C(=NC(=O)CC2(C)C(=O)N(CC(=O)NC2CCCC2)c2cc(C)cc(C)c2)C=C1 (centres undefined),x,-1,-3%,1.4,-2,
COc1ccc(-n2ccnc(SCC(=O)NCc3ccc(C)cc3)c2=O)cc1Cl,x,x,x,-0.9,-8,
Cc1cccc(NC(=O)c2cccnc2Oc2ccccc2)c1C(=O)O,x,x,x,-0.3,1,
CN1C2CCC1CC(NC(=O)c1cc(Cl)cc3[nH]cnc13)C2 (centres undefined),x,x,x,-2.3,3,
O=C1C=C(O)C(n2cncn2)C(c2ccc3c(c2)OCO3)C1 (centres undefined),x,6,2%,-5.5,-6,
COC(=O)[C@H](CCSC)NC(=O)N1CCC(C)CC1,6,5,-2%,-3.4,24,
Cc1c(C(=O)N2CCCCC2)c(S(=O)(=O)N2CCN(c3ccccc3F)CC2)c(C)n1C,x,x,x,0.1,0,
CC/C(C)=N\N=C\c1c(O)n(CC)c2cc(C3=NNC(=O)CC3)ccc12,-4,-7,0%,-17,1,
COCCn1c(-c2ccc(OC)cc2)cnc1SCC(=O)Nc1ccc(OC)cc1OC,-38,3,1%,0.4,4,
CCN(CC)S(=O)(=O)c1ccc(N=N/C(C(C)=O)=C(/C)O)cc1,-26,12,-10%,-4.4,-2,
N#Cc1c(NC(=O)c2ccccc2)sc2c1CCCCC2,-12,-2,0%,-0.2,15,
CCOc1ccc(NC(=O)CSc2nc3cccnc3n2CC)cc1,-28,-5,-4%,5.7,x,
COCCN1Cc2cccc(C(=O)NC3CCCCCC3)c2C1=O,-13,-4,-1%,1.9,-9,
